# Bioassay records: PubChem BioAssay, Southern Research Institute
# Vero viability – viability loss in Vero cells – cytotoxicity control for Vif-APOBEC3G degradation inhibitor project, dose response (AID 1117358). Vero viability, CellTiter-Glo ATP luminescence, 72 h; reference of the scale not given here. CC50 in µM for hits, for the others viability, % at the top dose, mostly 40 µM. 2,300 compounds, 7% hits;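 active means viability down to 80% or less at some dose; inactive means above 80% at all doses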
# An asterisk follows results filed as active.
SMILES,Vero viability
O=P1(NC2CCCC2)COc2ccccc2OC1,100%
O=C1NC(=O)N(C2CCCCC2)C(=O)C1C1c2ccccc2C(=O)N1Cc1ccccc1 (centres undefined),100%
O=C1C2CCCN2C(c2cccs2)N1c1ccccn1 (centres undefined),106%
O=c1[nH]c(=O)n(C2CCCCCC2)c(O)c1C=NCCCN1CCOCC1,88%
C=CCOC(=O)C1=C(C)OC(N)=C(C(=O)OCC)C12C(=O)N(CC(N)=O)c1ccccc12 (centres undefined),95%
O=C(c1ccco1)c1cn(Cc2ccccc2)c2ccccc12,>40µM*
CCOCCCN=Cc1c(O)n(Cc2ccccc2)c(=O)[nH]c1=O,90%

# Reprinted at random: three entries already listed, in no set order.
SMILES,Vero viability
O=P1(NC2CCCC2)COc2ccccc2OC1,100%
O=C1C2CCCN2C(c2cccs2)N1c1ccccn1 (centres undefined),106%
CCOCCCN=Cc1c(O)n(Cc2ccccc2)c(=O)[nH]c1=O,90%

# Some of the compounds tested; count on the stated rates, not on these rows.
